Sa growth 42C: blocks Staphylococcus aureus growth. AID 720641. 170,000 tested, 0.53% active. S. aureus RN4220 growth, OD600, 20 h, 42 °C; active compounds read low. relative growth, % (no concentration beside the values);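 active = growth at 42 °C up to 50% and 20 or more points under that at 30 °C, or under 10% at both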;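 note: 300 nL library stock went into each well; scaled to the means of positive and negative controls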
GIV-Gai inh: inhibitors of GIV GBA-motif binding to rat Galpha-i3. percent of control (FP), % (concentration not given with the values). 210,000 tested, 0.42% active. P08753. Galpha-i3/FITC-GIV peptide fluorescence polarization, 90 min; active compounds read low; scaled: aluminum fluoride 0%, vehicle 100%;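 active = replicate mean at 85% of control or lower, very high polarization wells dropped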;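 note: wells of about 15 µL received 100 nL stock; the first replicate is given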
Target sequence (P08753 whole entry, looked up): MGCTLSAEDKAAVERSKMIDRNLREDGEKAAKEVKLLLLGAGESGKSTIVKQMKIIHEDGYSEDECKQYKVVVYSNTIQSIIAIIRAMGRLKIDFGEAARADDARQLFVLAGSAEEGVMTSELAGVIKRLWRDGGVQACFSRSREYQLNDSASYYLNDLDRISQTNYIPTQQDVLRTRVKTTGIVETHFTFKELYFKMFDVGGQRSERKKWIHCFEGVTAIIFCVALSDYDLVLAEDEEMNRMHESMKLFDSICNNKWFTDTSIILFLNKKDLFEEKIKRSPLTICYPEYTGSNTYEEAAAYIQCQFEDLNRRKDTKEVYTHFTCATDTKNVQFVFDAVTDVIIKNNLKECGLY
HCMV UL50-53 inh: disrupts HCMV UL50-UL53 complex binding; HTRF UL50-UL53 interaction, normalized percent inhibition; inhibition, % (test concentration not listed); 190,000 tested, 0.15% active; AID 1918969;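 active = both replicates at 50% or more, plus weaker picks with an unusually low signal ratio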;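 note: stock transfer was 100 nL into about 20 µL; 0% = negative control wells and 100% = wells with untagged competitor protein; inactives centre near -12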
Sa growth 42C second temp: also measured in Sa growth 42C; calls as there; relative growth, %; measured here: growth at 30 °C;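 optical density after 20 h as mean of two plates; 100% = untreated growth and lower means inhibition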
Starred values were filed as active, the others as inactive; . = not tested or not shown.

Below each compound: Sa growth 42C second temp, HCMV UL50-53 inh, Sa growth 42C, GIV-Gai inh
- CC(=O)OC[C@H]1O[C@@H](N2CCCCC2)[C@H](OC(C)=O)[C@@H](OC(C)=O)[C@@H]1OC(C)=O
    89, -14, 85, 99
- Cc1cccc(-c2nc(SCc3cc(=O)c4c(C)cc(C)cc4[nH]3)n[nH]2)c1
    71, ., 80, 99
- COc1ccc(C2CC(=O)C3=C(C2)Nc2onc(C)c2C3c2cccc(OC)c2OC)cc1OC (stereo not drawn)
    ., -3, ., 104
- C=CCn1cc(/C=C(/C#N)c2ccc(F)cc2)c2ccccc21
    101, -6, 123, 106
- Cc1ccc(CSc2nnc(-c3ccc4c(c3)OCO4)o2)cc1
    99, 4, 91, .
- O=C(Nc1c2c(nn1-c1ccc([N+](=O)[O-])cc1)CSC2)c1ccc(S(=O)(=O)N2CCOCC2)cc1
    ., -15, ., 104
- COc1cccc(Nc2cc(C)nc3nc(-c4ccc(Cl)cc4)nn23)c1
    88, -1, 104, 101
- CCOc1ccc(NS(=O)(=O)c2ccc3[nH]cc(C(=O)NC4CCCC4)c(=O)c3c2)cc1
    76, -17, 104, 102
- Cc1cc2nc(N3CCOCC3)c3ccccc3n2n1
    81, 11, 89, .
- O=C(Nc1cccc2ccccc12)C1COc2ccccc2O1 (stereo not drawn)
    ., -24, ., 103

Of the compounds above, 4 contain four or more nitrogen atoms:
Below each compound: Sa growth 42C second temp, HCMV UL50-53 inh, Sa growth 42C, GIV-Gai inh
- Cc1cccc(-c2nc(SCc3cc(=O)c4c(C)cc(C)cc4[nH]3)n[nH]2)c1
    71, ., 80, 99
- O=C(Nc1c2c(nn1-c1ccc([N+](=O)[O-])cc1)CSC2)c1ccc(S(=O)(=O)N2CCOCC2)cc1
    ., -15, ., 104
- COc1cccc(Nc2cc(C)nc3nc(-c4ccc(Cl)cc4)nn23)c1
    88, -1, 104, 101
- Cc1cc2nc(N3CCOCC3)c3ccccc3n2n1
    81, 11, 89, .

The results go on:
Below each compound: Sa growth 42C second temp, HCMV UL50-53 inh, Sa growth 42C, GIV-Gai inh
- CCSc1ncc(Cl)c(C(=O)Nc2c(C(=O)c3ccccc3)oc3ccccc23)n1
    92, -1, 106, 103
- COC(=O)Cn1ncc2c3ccccc3n(Cc3ccccc3)c2c1=O
    96, 7, 94, 110
- CCn1c(=O)cc(SCC(=O)NCc2cccc(Cl)c2)c2ccccc21
    91, -25, 97, 108
- Cc1ccccc1NC(=O)CCn1cnc2onc(-c3ccc(F)cc3)c2c1=O
    100, ., 90, 99
- COc1cccc(-c2cc(C(F)(F)F)n3nc(-c4ccc(C)cc4)cc3n2)c1
    104, 6, 83, 103
- COc1cccc(CSc2nc3ccncc3n2CC(=O)NCC2CCCO2)c1 (stereo not drawn)
    85, -1, 96, 102
- Cc1cccc(C(C)C)c1NC(=O)C(NS(=O)(=O)c1cccc2nsnc12)c1ccccc1 (stereo not drawn)
    83, -102, 97, 105
- Cc1cc(/C(O)=C2\C(=O)C(=O)N(CCN(C)C)C2c2ccncc2)ccc1OCC(C)C (stereo not drawn)
    106, -31, 112, 102
- Cc1cccc2c1-c1sc(C(=O)n3c(C)cc4ccccc43)cc1CO2
    93, ., 101, 106
- CCCS(=O)(=O)c1nc(S(=O)(=O)c2ccc(C)cc2)c(NC(C)c2ccccc2)s1 (stereo not drawn)
    91, 8, 107, 99

Below each compound: Sa growth 42C second temp, HCMV UL50-53 inh, Sa growth 42C, GIV-Gai inh
- CC1CS(=O)(=O)N(c2ccc(S(=O)(=O)NC3CC3)cc2)C1=O (stereo not drawn)
    ., -13, ., 100
- CC1(C)Nc2ccccc2-c2nc3ccccc3n21
    62, -6, 86, 102
- CCCCOc1ccc(S(=O)(=O)Nc2ccc(-c3cn4ccccc4n3)cc2)cc1
    ., -9, ., 101
- COc1ccc2c(c1)CC(NC(=O)Nc1ccc(NC(C)=O)cc1)CO2 (stereo not drawn)
    103, ., 107, 96
- CSc1ccc(N2C(=O)C=CC2=O)cc1
    35, -8, 64, 107
- COc1cc(OC)c(C2Nc3c(C)cccc3-c3cc(C)nn32)cc1OC (stereo not drawn)
    106, 9, 90, 108
- CCc1ccc(OC(C)C(=O)NCCc2csc(-c3ccc(OC)cc3)n2)cc1 (stereo not drawn)
    ., -8, ., 95
- CNC(=O)c1c(O)c2ccccc2[nH]c1=O
    77, -6, 87, .
- C/C(=N\OCC(=O)NC1CCCc2ccccc21)c1cc2ccccc2o1 (stereo not drawn)
    85, -28, 76, .
- O=C(Nc1ccc(Cl)cc1)N1CCC(c2ccccc2)C1 (stereo not drawn)
    38, ., 42, 103

Below each compound: Sa growth 42C second temp, HCMV UL50-53 inh, Sa growth 42C, GIV-Gai inh
- Nc1nc(CSc2nc3ccccc3o2)nc(-c2ccccc2O)n1
    78, -4, 88, 103
- CCc1cc(C(=O)O)c(SSc2sc(CC)cc2C(=O)O)s1
    78, -25, 104, 99
- CS(=O)(=O)N1CCCC1c1nnc(C(=O)Nc2ccc3c(c2)OCO3)s1 (stereo not drawn)
    ., -30, ., 115
- O=C(COC(=O)C1CCN(C(=O)Nc2ccccc2)CC1)c1c[nH]c2ccccc12
    82, -18, 82, .
- CCn1c(SCC(=O)OCC(=O)Nc2ccc(C)c(F)c2)nnc1-c1cccs1
    86, -25, 72, .
- O=C(CN1CCN(Cc2ccc(Cl)cc2)CC1)N1CCc2ccccc21
    87, -20, 101, .
- CC1(C)CC(=O)C(C=NC2CC(C)(C)NC(C)(C)C2)=C(O)C1
    100, -9, 118, 105
- CC(C)(C)c1cc2ncnc(N3CCSCC3)c2s1
    101, 13, 102, 104
- CCC(C)c1ccc(NC(=O)CC(C)C)cc1 (stereo not drawn)
    97, -16, 98, 99
- CC(C)c1cc(=O)[nH]c(SCCOc2ccccc2Cl)n1
    45, -8, 60, 105

Below each compound: Sa growth 42C second temp, HCMV UL50-53 inh, Sa growth 42C, GIV-Gai inh
- Cc1cc(F)ccc1Nc1c(C(=O)N2CCCCC2)cnc2ccc(F)cc12
    ., -5, ., 99
- COc1ccc(N2CCN(c3c(C(=O)c4ccc(C)cc4)cnc4cc(OC)c(OC)cc34)CC2)cc1
    77, -27, 78, 103
- O=C(Cc1ccccc1)Nc1ccc2oc(-c3ccncc3)nc2c1
    92, -5, 89, .
- O=C1CC(c2ccccc2)NC(c2ccccc2)C1 (stereo not drawn)
    58, -2, 112, 102
- O=C(COc1cccc(C(F)(F)F)c1)NCCc1ccccn1
    93, -10, 87, .
- COc1ccc(C(=O)Nc2cccc(-c3nc4ccccc4o3)c2)cc1
    89, ., 97, 114
- Cn1c(Cc2nc(-c3cnccn3)no2)nnc1SCc1ccc(Cl)cc1
    86, -33, 98, 108
- COC(=O)c1ccc(NC(=O)CN(CCc2ccccc2)S(=O)(=O)c2ccc(OC)cc2)cc1
    80, -43, 106, 104
- O=C(c1ccccc1)N1CC(=O)N(OCc2ccccc2)C1c1cccs1 (stereo not drawn)
    97, 2, 79, .
- Cc1ccc(CNC(=O)c2ccc(Cn3c(=O)c4ccccc4n(CC(=O)Nc4c(C)cc(C)cc4C)c3=O)cc2)cc1
    70, -28, 104, 107

Below each compound: Sa growth 42C second temp, HCMV UL50-53 inh, Sa growth 42C, GIV-Gai inh
- CC(=O)O[C@@H]1[C@H]2OC(C)(C)O[C@H]2O[C@@H]1C(O)CO (stereo partly drawn)
    84, -13, 99, 99
- S=c1ccc2nnc(-c3ccccc3)n2[nH]1
    64, -48, 52, 99
- COc1cccc(CN2CCCN(Cc3ccc(Cl)cc3)S2(=O)=O)c1
    ., -1, ., 107
- CC1CCCCN1C(=O)CN(C)S(=O)(=O)c1cccc2nsnc12 (stereo not drawn)
    107, -4, 87, 102
- CCc1ccc(-c2ccc(=O)[nH]n2)cc1S(=O)(=O)NCC1CCCO1 (stereo not drawn)
    ., -90, ., 103
- Cc1ccc(-c2cnnc(-c3ccc(Cl)cc3)n2)cc1
    90, -3, 113, 98
- Cc1ccc(Cn2c(C(=O)O)c(CNCc3ccc(C)o3)c3ccc(C)cc32)cc1
    56, ., 101, 107
- c1ccc(-c2cn3c(n2)CCC3)cc1
    88, -12, 101, 98
- Cc1cccc(N2CCN(S(=O)(=O)c3c(C)nc4scc(C)n4c3=O)CC2C)c1 (stereo not drawn)
    94, -2, 105, 107
- Cc1nn(Cc2ccccc2Cl)c(C)c1NC(=O)COCc1cc(-c2ccc3c(c2)OCO3)on1
    100, 0, 112, 106

Below each compound: Sa growth 42C second temp, HCMV UL50-53 inh, Sa growth 42C, GIV-Gai inh
- Cc1scc(-c2ccccc2)[n+]1C
    88, -5, 78, .
- Cc1occc1C(=O)C(C#N)=C1SCCCCS1
    83, -4, 123, 100
- ON=Cc1cccn1-c1ccccc1
    80, -24, 102, 100
- c1ccc(C2OCC3(CO2)COC(c2ccccc2)OC3)cc1 (stereo not drawn)
    88, 5, 104, 99
- COc1ccc(-c2cc(C)no2)cc1S(=O)(=O)N1CCOc2ccccc21
    93, ., 114, 107
- Cc1nnc(Sc2nc(Nc3ccccc3)nc(Nc3ccccc3)n2)s1
    76, ., 117, 104
- COC(=O)c1ccc2c(c1)C1C=CCC1C(c1ccc(F)cc1)N2 (stereo not drawn)
    ., -22, ., 113
- CCC1CCCCN1C(=O)Cn1c(=O)cc(C(F)(F)F)c2c(C)nn(C)c21 (stereo not drawn)
    74, ., 84, 103
- COc1ccccc1OCCN1CCCCC1
    93, 7, 92, .
- COc1ccc(NC(=O)Cc2c(F)c(F)c(F)c(F)c2F)cc1OC
    91, 0, 88, .

In another format: 2 of the compounds above.
canonical_smiles | Sa growth 42C second temp | HCMV UL50-53 inh | Sa growth 42C | GIV-Gai inh
c1ccc(C2OCC3(CO2)COC(c2ccccc2)OC3)cc1 (stereo not drawn) | 88 | 5 | 104 | 99
COc1ccc(NC(=O)Cc2c(F)c(F)c(F)c(F)c2F)cc1OC | 91 | 0 | 88 | .

Full records as entered above. Order of values: Sa growth 42C second temp | HCMV UL50-53 inh | Sa growth 42C | GIV-Gai inh
`ON=Cc1cccn1-c1ccccc1` reads 80 | -24 | 102 | 100
`Cc1nnc(Sc2nc(Nc3ccccc3)nc(Nc3ccccc3)n2)s1` reads 76 | . | 117 | 104
`COC(=O)c1ccc2c(c1)C1C=CCC1C(c1ccc(F)cc1)N2` (stereo not drawn) reads . | -22 | . | 113
`Cc1scc(-c2ccccc2)[n+]1C` reads 88 | -5 | 78 | .

Other compounds
Below each compound: Sa growth 42C second temp, HCMV UL50-53 inh, Sa growth 42C, GIV-Gai inh
- Cc1cc(C=Nc2ccc(O)c(C(=O)O)c2)c(C)n1-c1ccc(N(C)C)cc1
    93, -12, 103, .
- CC(C)CCNC(=O)C1CCN(C(=O)c2cc3sccc3n2Cc2ccc(F)cc2)CC1
    85, ., 91, 112
- O=C(NO)C12CCC(CC1)C2
    85, -18, 116, .
- CCNC(=O)N1CCc2cc(S(=O)(=O)N3CCCC3)ccc21
    ., 3, ., 105
- CCc1nn(-c2ccccc2)c2nc(-c3ccccc3O)c3cc(OC)c(OC)cc3c12
    82, ., 101, 106
- CCSc1nnc2c(n1)OC(c1ccccc1C)N(C(C)=O)c1ccccc1-2 (stereo not drawn)
    ., -1, ., 109
- CCCCc1ccc(N2CCn3c2nc2c3c(=O)n(CC(=O)O)c(=O)n2C)cc1
    ., 22, ., 99
- C/C=C/COC(=O)C1=C(C)NC(=O)NC1c1cc(Br)c(O)c(OC)c1 (stereo not drawn)
    ., -17, ., 105
- c1ccc(Oc2ncnc3sccc23)cc1
    92, 12, 112, .
- CN(C)C(=O)CN(c1ccccc1)S(=O)(=O)c1ccccc1
    105, -2, 81, 98

Below each compound: Sa growth 42C second temp, HCMV UL50-53 inh, Sa growth 42C, GIV-Gai inh
- CCSCCOC(=O)C1=C(C)NC2=C(C(=O)CC(c3ccccc3)C2)C1c1cccc([N+](=O)[O-])c1 (stereo not drawn)
    ., -17, ., 100
- Cc1cccc(NC(=O)c2nnn(-c3ccc4noc(-c5ccccc5)c4c3)c2C)c1
    ., 6, ., 103
- COc1ccc(Cc2nc3ccc(S(=O)(=O)N4CCOCC4)cc3[nH]2)cc1
    100, -4, 105, .
- CCN(CC)C(=O)c1c(NC(=O)c2ccccc2F)sc2c1CCC(C(C)(C)C)C2 (stereo not drawn)
    88, -4, 99, 106
- CCOC(=O)c1c[nH]c2cc3c(cc2c1=O)OCCO3
    83, -2, 87, 99
- CCOC(=O)C1CCCN(Cc2cc(=O)n3ccsc3n2)C1 (stereo not drawn)
    93, -17, 87, .
- O=C(Nc1ccccn1)c1cccs1
    63, 18, 102, 99
- O=C(NCCc1cn2ccccc2n1)c1cccs1
    83, -32, 90, 102
- Cc1ccc(S(=O)(=O)c2nnn3c2nc(NCc2ccc4c(c2)OCO4)c2sccc23)cc1C
    103, ., 104, 100
- Fc1ccc(CNCc2ccccc2)cc1
    102, 15, 95, 105

Below each compound: Sa growth 42C second temp, HCMV UL50-53 inh, Sa growth 42C, GIV-Gai inh
- CCC(CC)c1nc2ccccc2c(=O)[nH]1
    86, -14, 72, 102
- COc1ccc2c(c1)C=C(C(=O)N1CCCCC1)CO2
    ., -34, ., 102
- Cc1ccc(NC2(c3nnnn3CCOC(=O)Nc3ccc(Cl)cc3)CCCCC2)cc1
    65, ., 94, 101
- Cc1cc(/C=N/N2CCN(C)CC2)cc(C)c1O
    112, -4, 103, 102
- Cc1cc2c(cc1S(=O)(=O)N1CCc3ccccc3C1)n(C)c(=O)c(=O)n2C
    82, -4, 95, 100
- c1ccc(OCc2nn3c(-c4ccc5ccccc5n4)nnc3s2)cc1
    ., -24, ., 113

Source: PubChem (ICCB-Longwood Screening Facility, Harvard Medical School)
